eIF4H inh = inhibitors of RNA binding by human eIF4H | Q15056 | eIF4H fluorescence polarization binding assay | inhibition, % at 35 µM | 290,000 compounds, 0.94% hits | AID 2012;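 active = 50% or more with normal probe brightness, or confirmed in later tests; inconclusive = above 50% with abnormal brightness, or retests that disagree; inactive = below 50% or failed in later tests; about a fifth of its hits are not listed in these tables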;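 note: calls also rest on retests at 20 µM and on dose response follow-up; 0% = protein and probe with vehicle and 100% = probe without protein; strong numbers were not always called active; many hits fall short of the cut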
Yeast UUG start = alters start codon recognition fidelity in yeast; S. cerevisiae UUG-firefly luciferase reporter, luminescence/redox ratio; activity score, % at 18.7 µM; 350,000 compounds, 0.13% hits;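 active = replicate mean at a twofold rise or more, about +100% in these data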;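 note: firefly luciferase made from a UUG start codon reports start codon fidelity; reporter light over untreated wells divided by growth signal over untreated wells; some hits fall short of that in this replicate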
CSC inhib = cancer stem cell inhibition; 300,000 compounds, 1.1% hits; AID 2717; inhibition, % at 7.5 µM; cancer stem cell-like cells viability, luminescence;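 active = mean at 75% or more and at least half the replicates too; inconclusive = mean and replicates disagree; tested in HMLE shEcad cells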;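 note: 0% = median of negative and 100% = median of positive control wells; the first replicate is given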
MT1-MMP act inh = inhibitors of human MT1-MMP activation | P50281 | HT1080 RFP-PRO-GFP cells, GFP/RFP ratio fluorescence, overnight; percent of plate control window, DMSO zero | GFP/RFP ratio change, % at 20 µM | 360,000 compounds, 0.061% hits;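 active = GFP/RFP ratio change of at least 30% with cell ATP level not reduced by more than half and red fluorescence within 50% of control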; note: strong numbers were not always called active
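Assay system: HT1080 cells carrying an RFP-PRO-GFP reporter | Dosing: Single dose of 20 µM compound, 1% DMSO final | Incubation: Cells overnight before dosing, compound overnight, 37 °C, 5% CO2 | Evaluation: GFP/RFP fluorescence ratio | Control set: DMSO and RFP-L50D-GFP cell wells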
Env fusion inh = inhibitors of HIV Env-mediated cell fusion | inhibition, % at 12.3 µM | AID 651610 | HeLa-JRFL Env/CEM21 cell fusion, luciferase | 360,000 compounds, 1.1% hits;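 active = mean replicate inhibition score of at least 50 and every replicate individually at or above 50; inconclusive = only one of the two criteria met; inactive = mean below 50 and not all replicates reaching 50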;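 note: 0% = plate neutral controls and 100% = maraviroc near 300 nM; one replicate is shown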
PABP FP inh = blocks human PABP binding to poly(A) RNA; 290,000 compounds, 1% hits; P11940; fluorescence polarization; inhibition, % at 35 µM;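 active = 50% or more with normal probe brightness, or confirmed in later tests; inconclusive = above 50% with abnormal brightness, or retests that disagree; inactive = below 50% or failed in later tests; about a fifth of its hits are not listed in these tables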;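 note: calls also rest on retests at 20 µM and on dose response follow-up; controls were probe without protein and protein plus probe with vehicle; some compounds called inactive have numbers as strong as hits; many hits fall short of the cut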
Rce1 inh = blocks yeast Ras-converting enzyme | yeast membranes, quenched prenylated peptide cleavage fluorescence | calls only | 290,000 compounds, 0.27% hits | Q03530;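 active = fall in fluorescence gain of 50% or more versus controls, with final raw signal at or below 3038400; inconclusive = same 50% fall but final raw signal above 3038400; inactive = fall in fluorescence gain under 50%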;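 note: plate controls were neutral control wells for no effect and wells lacking membranes for full effect; tested at 10 µM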
Target sequence (Q03530 whole entry, looked up): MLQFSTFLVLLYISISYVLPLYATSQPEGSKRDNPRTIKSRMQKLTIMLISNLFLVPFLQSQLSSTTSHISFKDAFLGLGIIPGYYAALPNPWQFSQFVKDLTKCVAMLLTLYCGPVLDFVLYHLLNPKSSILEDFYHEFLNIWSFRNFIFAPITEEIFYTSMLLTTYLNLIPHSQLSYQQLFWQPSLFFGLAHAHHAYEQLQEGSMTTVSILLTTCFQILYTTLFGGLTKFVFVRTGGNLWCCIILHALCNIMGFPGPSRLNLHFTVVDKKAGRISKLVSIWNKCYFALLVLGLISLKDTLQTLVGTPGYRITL
MT1-MMP act inh RFP = further read-out of MT1-MMP act inh, marked with its call; RFP signal change, %; measured here: RFP expression control read;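 0 = vehicle wells; hits needed this value within 50% of zero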
Active calls of the source: *; i = inactive; ? = inconclusive; / = no result given. Not a hit list. Share with any hit: about 3%.

entry	structure	eIF4H inh	Yeast UUG start	CSC inhib	MT1-MMP act inh	MT1-MMP act inh RFP	Env fusion inh	PABP FP inh	Rce1 inh
1	O=C(CCC(=O)N1CCN(S(=O)(=O)c2ccc(Cl)cc2)CC1)Nc1ccc(Cl)cc1Cl	-2.4	-56.7	-13.4	3.7	0.1	1.0	44.1	i
2	Cn1cc(CNC(=O)/C=C/c2ccc(Cl)cc2)cn1	0.6	/	2.4	5.7	6.4	/	-9.8	i
3	COc1ccc(/C=N/Nc2nonc2N)cc1	-7.3	-17.1	-15.8	-0.5	2.0	10.3	-7.3	i
4	CCCN(C(=O)c1ccc(S(=O)(=O)N2CCCC2)cc1)C1CCS(=O)(=O)C1 (stereo unspecified)	/	-11.5	-12.0	-1.1	0.4	/	/	/
5	Cc1ccc(SCC(=O)NCc2ccccc2)cc1	-5.5	-14.1	-9.1	-0.7	-0.3	1.0	0.6	i
6	CC(=O)c1cccc(NC(=O)c2cc(-c3ccco3)nc3ccccc23)c1	45.6	-4.3	6.1	0.8	2.3	5.1	1.3	i
7	Cc1cccnc1NC(=S)NC(=O)/C=C/c1ccccc1	-4.3	/	-8.2	-3.9	-0.6	-22.5	-18.8	i
8	CCC(C)(CC(=O)Nc1nccs1)c1ccccc1 (stereo unspecified)	5.6	-6.9	-11.1	-6.0	-5.6	16.6	0.1	i
9	COc1ccc(C2C(C#N)C(C#N)N3CCCN23)cc1 (stereo unspecified)	2.8	-23.2	-8.6	-0.4	1.3	-1.4	1.5	i
10	O=C1NC[C@H](c2ccccc2)N(CCc2cccc(F)c2)C1=O	-0.3	-11.5	-13.9	2.0	1.9	-30.5	-1.5	i
11	Cc1ccc(C)c(Oc2coc3cc(O)ccc3c2=O)c1	1.3	-7.2	3.3	1.3	1.0	-6.7	-1.8	i
12	Cc1ccc(NC(=O)CCNS(=O)(=O)c2cccc3nsnc23)cc1	-0.8	-22.9	-10.0	2.5	5.1	/	7.8	i
13	OC1CCCCC1Sc1nc2ccccc2s1 (stereo unspecified)	-2.1	-2.4	5.8	-0.5	0.2	-20.5	-16.6	i
14	[N-]=[N+]=NC[C@H](Cc1ccccc1)N1CC[C@@H](NC(=O)OCc2ccccc2)CCC1=O	17.1	-21.1	4.4	-2.1	-2.8	-46.5	6.7	i
15	NC1=NC(=O)/C(=C\c2ccc(-c3ccc(Cl)cc3)o2)S1	20.0	-19.2	-5.6	-4.2	4.0	-99.6	-11.9	i
16	C1CCc2c(nc3nnnn3c2NCC2CC2)C1	-11.6	-17.3	-6.3	-1.0	2.5	12.9	0.2	i
17	COc1ccc(Cc2nnc(SCC(=O)Nc3ncc(C)s3)o2)cc1	-4.4	-13.3	4.2	3.7	7.3	-66.9	-2.0	i
18	Cc1ccccc1S(=O)(=O)Cc1ccc(C(=O)NCc2ccc(F)cc2)o1	-2.6	-17.9	/	-0.6	-3.4	9.0	1.0	i
19	CCCCC(=O)NC(=S)Nc1ccc(NC(=O)C(C)C)c(OC)c1	-3.9	-11.5	4.0	1.9	-1.8	8.7	-0.7	i
20	Cc1ccc(OCC(=O)Oc2ccc(C)c(C)c2)cc1	-5.9	-10.0	-8.7	0.8	5.9	5.4	1.1	i
21	CCN1C(=O)[C@H]2[C@@H](c3ccc(SC4CCCCC4)cc3)N3CCCC[C@@]3(C(=O)OC)[C@H]2C1=O	/	-9.5	23.7	0.7	-8.8	7.2	/	i
22	COc1ccccc1CCNC(=O)C(=O)NCC1CCCN1S(=O)(=O)c1ccccc1 (stereo unspecified)	/	3.7	/	-1.6	-8.1	-0.9	/	i
23	Cn1cc(CN2CCC(n3nccc3NC(=O)c3ccccc3Cl)CC2)cn1	-7.7	-5.8	-11.8	2.0	5.3	-4.7	-5.7	i
24	Cc1cccc(NC(=O)CSc2nnc(C)c(C)n2)c1	-0.3	-13.3	-1.7	2.7	4.5	5.9	-1.8	i
25	Cc1cc(C(=O)NC(Cc2ccccc2)C(=O)O)c(C)o1 (stereo unspecified)	8.5	11.9	-10.1	-5.0	4.5	2.7	10.7	i
26	COc1ccc2c(c1)sc(N)[n+]2Cc1cc(C)cc2cccnc12	-6.3	-1.2	59.7	-8.3	-19.3	10.1	-0.9	i
27	O=C(NC1CCCC1)C(c1ccccc1)N(C(=O)c1csnn1)C1CCCC1 (stereo unspecified)	7.1	-12.0	/	-3.1	-0.9	18.8	1.6	i
28	Cc1cc(C(F)(F)F)c2sc(N)nc2n1	-7.7	-24.8	-20.2	-1.0	6.5	/	4.8	i
29	COc1cc(NC(=O)c2cc(Cl)ccc2Cl)ccc1-c1cc2ccccc2oc1=O	-7.2	-19.1	/	5.8	-1.7	?	-0.5	i
30	CC1CCCN(CCOCCOc2ccccc2-c2ccccc2)C1 (stereo unspecified)	20.8	-10.6	53.9	-11.7	-3.0	-2.1	-4.4	i
31	Cn1nccc1C(=O)NC1CCCc2c1cnn2-c1ccccc1F (stereo unspecified)	-7.6	-5.5	-10.4	-2.4	-28.1	18.6	-1.9	i
32	COc1cccc(NC(=O)CCC2CCN(C(=O)c3cncs3)CC2)c1	2.6	14.5	4.2	4.5	5.7	/	-2.8	i
33	COc1ccc(SC[C@H](C)CN2CC[C@H](NC(=O)OCc3ccccc3)CCC2=O)cc1	/	35.2	19.8	5.4	-3.9	23.4	/	/
34	COc1ccc(S(=O)(=O)N2CCN(CC(=O)Nc3cc(Cl)ccc3Cl)CC2)cc1	/	-8.9	/	0.2	-0.9	-2.1	/	/
35	Cc1ccc(NC(=O)c2ccc(Cl)c(S(=O)(=O)Nc3c(C)n(C)n(-c4ccccc4)c3=O)c2)cc1Cl	/	-10.7	/	1.4	-9.9	-15.3	/	/
36	O=c1[nH]c(=S)n(-c2ccc(Br)cc2)c2ncccc12	/	/	0.4	0.3	1.3	4.8	/	i
37	CC1(C)C/C(=N\O)C(C(O)c2cccc([N+](=O)[O-])c2)C(C)(C)N1 (stereo unspecified)	-1.0	-22.5	1.3	-0.3	3.0	10.6	-3.6	i
38	Cc1cccc(C(C(=O)NC2CCCC2)N(C(=O)c2csnn2)C2CC2)c1 (stereo unspecified)	17.7	-17.8	-5.8	0.7	4.6	2.5	15.8	i
39	O=c1c2ccccc2nnn1CSc1nc2sc3c(c2c(=O)n1CC1CCCO1)CCC3 (stereo unspecified)	7.0	-11.4	29.4	-6.3	-8.9	33.7	3.8	i
40	CN(C(=O)COC(=O)c1cccc(S(=O)(=O)N2CCCCCC2)c1)c1ccccc1	/	-15.8	/	7.1	3.8	1.0	/	/
41	CCCN(C(=O)CSc1nnnn1C)c1c(N)n(Cc2ccccc2)c(=O)[nH]c1=O	-3.0	/	/	0.4	4.5	-15.2	14.2	i
42	CCC(C)(C)n1nnnc1C(c1cccc(C#N)c1)N1CCN(c2cccc(C)c2C)CC1 (stereo unspecified)	7.1	-24.2	4.9	-20.6	-15.4	/	-9.0	i
43	COc1ccc(Br)cc1CN1CCN(C(=O)c2ccco2)CC1	17.4	-2.5	-14.5	-0.6	2.4	18.3	-0.5	i
44	O=C(c1cc(S(=O)(=O)N2CCOCC2)c(Cl)cc1Cl)N1CCCC1	/	-6.8	/	2.7	0.3	1.8	/	/
45	Cc1ccc(Nc2cc(C)nc3nc(C)nn23)cc1	7.8	-8.3	-5.9	0.1	3.5	-1.5	7.9	i
46	CC(C)CNC(=O)CC(=O)NN=C1CCCC1	-10.3	-20.5	1.1	5.7	8.4	-59.0	-2.5	i
47	CC1CC(=O)Nc2cc([N+](=O)[O-])ccc2N1 (stereo unspecified)	7.1	/	16.3	-13.5	0.0	5.6	-6.0	i
48	Cc1cc(C)c2cc(C(=O)Nc3ccc4c(c3)OCO4)[nH]c2c1	-5.6	/	7.6	/	/	10.3	4.4	i
49	COc1ccccc1CNC(=O)CCn1c(=O)[nH]c2ccsc2c1=O	6.3	3.5	1.7	4.6	4.7	-0.4	8.4	i
50	CC1CCCC(C)N1C(=O)Cn1cnc2cc([N+](=O)[O-])ccc2c1=O (stereo unspecified)	9.2	/	6.8	2.7	-1.2	0.2	-0.9	/

Random excerpt: 2 compounds from above
entry	structure	eIF4H inh	Yeast UUG start	CSC inhib	MT1-MMP act inh	MT1-MMP act inh RFP	Env fusion inh	PABP FP inh	Rce1 inh
43	COc1ccc(Br)cc1CN1CCN(C(=O)c2ccco2)CC1	17.4	-2.5	-14.5	-0.6	2.4	18.3	-0.5	i
48	Cc1cc(C)c2cc(C(=O)Nc3ccc4c(c3)OCO4)[nH]c2c1	-5.6	/	7.6	/	/	10.3	4.4	i

Continuation:
entry	structure	eIF4H inh	Yeast UUG start	CSC inhib	MT1-MMP act inh	MT1-MMP act inh RFP	Env fusion inh	PABP FP inh	Rce1 inh
51	CC(Nc1ccc2c(c1)OCCO2)C(=O)Nc1ccc2c(c1)OCO2 (stereo unspecified)	14.6	-8.1	/	-1.6	-3.5	-4.9	42.7	i
52	O=C(CCC1CCCN(C(=O)C2=CCCC2)C1)N1CCN(c2ccccn2)CC1 (stereo unspecified)	-7.7	/	-12.1	-6.4	-3.0	-7.7	-7.2	i
53	O=S(=O)(Nc1ccc(-n2cccc2)cc1)c1ccc(Cl)cc1Cl	11.7	6.0	38.4	-4.0	-4.3	-48.9	-2.4	i
54	Cn1nnnc1SCC(=O)Nc1ccc(Cl)c(S(=O)(=O)N2CCOCC2)c1	-7.3	-21.0	-7.2	1.0	-1.9	-6.5	0.8	/
55	COc1ccc(-c2c(-c3cc(OC)cc(OC)c3)n(C)c3ccc(-c4ccc(N(C)C)nc4)cc23)cc1	/	-7.2	65.1	-2.7	1.1	-20.6	/	/
56	Cc1ccccc1-c1cnc(C(O)c2ccc(Cl)c(F)c2)[nH]1 (stereo unspecified)	/	-12.8	/	2.1	-3.1	13.9	/	/
57	COC(=O)C(CC(=O)c1ccc(Br)cc1)n1ccnc1 (stereo unspecified)	-5.4	/	/	/	/	/	-9.4	i
58	COc1ccc(CC(=O)OCC(=O)NC(=O)NC2CCCC2)cc1	/	-16.1	/	3.7	-3.0	3.7	/	/
59	CCCNC(=S)NC1CC2CCCC(C1)N2Cc1ccc(F)cc1 (stereo unspecified)	2.9	10.0	-5.3	-1.0	1.2	-12.0	10.8	i
60	COCc1cc(C)n(CC(=O)N/N=C/c2ccc(-c3ccc(Cl)c(C(=O)O)c3)o2)c(=O)c1C#N	?	-0.3	5.5	-5.0	0.9	-21.2	?	i
61	O=C(COC(=O)c1ccc(S(=O)(=O)N2CCCC2)cc1)Nc1cccc(F)c1	/	-34.3	-19.2	1.4	1.1	/	/	/
62	CCn1c(SCC(=O)NC2CC2)nnc1-c1csc(C)c1	-24.9	-15.2	-10.9	-2.5	-0.6	/	1.0	i
63	CC1Oc2ccccc2OC1(O)c1ccc2ccccc2n1 (stereo unspecified)	-4.5	/	-0.3	1.4	-1.8	5.0	1.2	i
64	CC(C)c1ccc(NC(=O)CN(Cc2ccccc2)S(C)(=O)=O)cc1	-12.3	0.0	3.4	-8.9	-6.3	7.4	-3.4	i
65	O=C1C2C3c4ccccc4C(c4ccccc43)[C@@H]2C(=O)N1c1ccccn1 (stereo partly specified)	-19.6	/	/	0.4	-1.1	-13.0	-6.4	i
66	CCc1nnc(NC(=O)C2CC(=O)N(CCc3ccc(F)cc3)C2)s1 (stereo unspecified)	-3.8	6.6	-10.5	-4.5	-1.9	-0.2	19.6	i
67	Cc1ccc(C)c(CN2C(=O)COc3ccc(C(=O)c4ccccc4C(=O)O)cc32)c1	-0.7	/	-7.2	-2.6	-3.6	1.4	9.6	i
68	CC1CCc2nc(NC(=O)Nc3ccc4c(c3)OCO4)sc2C1 (stereo unspecified)	-6.3	/	52.0	8.1	7.4	/	12.1	i

Screening data (PubChem)
